# TAAR1 ag = agonists of human TAAR1; Q96RJ0; CHO RD-HGA16 TAAR1, Fluo-8 calcium fluorescence; vehicle wells 0%, saturating PEA agonist 100%; activation, % at 3 µM; 360,000 compounds, 0.99% hits; AID 624467;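 active means activation above the mean activation of all test compounds in the run plus 3 SD, cut at about 38% in these data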
# Target sequence (Q96RJ0 whole entry, looked up): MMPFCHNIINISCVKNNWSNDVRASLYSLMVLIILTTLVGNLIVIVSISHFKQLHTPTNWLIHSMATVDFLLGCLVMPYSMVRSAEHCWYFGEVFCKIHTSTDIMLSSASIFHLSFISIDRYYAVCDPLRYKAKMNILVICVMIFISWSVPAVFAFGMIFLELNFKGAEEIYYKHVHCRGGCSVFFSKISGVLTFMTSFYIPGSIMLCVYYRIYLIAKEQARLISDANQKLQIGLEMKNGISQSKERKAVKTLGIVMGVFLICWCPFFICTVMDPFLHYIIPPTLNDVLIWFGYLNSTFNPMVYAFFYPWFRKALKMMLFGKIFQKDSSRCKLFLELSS
#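 Test system: RD-HGA16 (CHO) cells co-expressing Gα16 and hTAAR1; dosing: one-point dosing at 3 µM (nominal); timing: 17-24 h seeding, 75 min 37 °C dye, 30 min RT; signal: kinetic Fluo-8 calcium fluorescence; read-out basis: % activation relative to PEA EC100 response; controls: DMSO and PEA EC100; replicates: n 1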
# TAAR1 antag = human TAAR1 antagonism. CHO RD-HGA16 TAAR1, Fluo-8 calcium fluorescence, antagonist. Q96RJ0. 360,000 compounds, 1.5% hits. inhibition, % at 3 µM. AID 624466;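 active means inhibition above a per-plate cutoff, the mean inhibition of test compounds on that plate plus 3 SD, cut at about 49% in these data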;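 further: 0% = DMSO plus EC80 beta-PEA response and 100% = DMSO alone without agonist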
#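 test system = CHO RD-HGA16 cells bearing hTAAR1 | replication = singlicate | controls = DMSO-only wells and EC80 β-PEA-stimulated wells | reagent = EC80 β-phenethylamine stimulus | read-out basis = percent inhibition of PEA-evoked calcium signal, max/basal emission ratio | schedule = seeding 17-24 h prior, 75-min 37 °C, 30-min RT dye loading | signal = kinetic Fluo-8 calcium fluorescence measurement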
# OXTR agonist = human OXTR agonism | AID 2435 | activation, % at 3 µM | P30559 | 320,000 compounds, 0.32% hits | CHO-OTR cells, Fluo-8 calcium fluorescence; normalized: DMSO 0%, oxytocin 100%;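 active means activation above the mean of all tested compounds plus 3 SD, cutoff set per screening run, cut at about 20% in these data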;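 further: peak over basal fluorescence ratio from a 100 s FLIPR kinetic read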
# OXTR potentiate = potentiates the human oxytocin receptor response; activation, % at 3 µM; 320,000 compounds, 0.061% hits; P30559; AID 2445; CHO-OTR cells, Fluo-8 calcium fluorescence, potentiator mode; 0% = oxytocin EC15, 100% = EC100;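 active means activation above that plate's cutoff, the mean activation of tested compounds plus 3 SD, cut at about 6.6% in these data, passing the limit was not always enough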;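 further: 100% uses oxytocin at 75 nM as the full agonist control; some results filed as inactive read as strong as hits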
#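 Replication – single well per compound, singlicate · Assay system – CHO cell line stably expressing human OTR · Timing – 6 min pre-incubation, 100 s read · Measure – normalized max/min fluorescence ratio, % activation · Doses – 3.0 µM, one dose · Detection – Fluo-8 calcium dye fluorescence · Probe or stimulus – oxytocin near EC15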
# V1R ag counter = counter-screen for oxytocin receptor agonists: human V1a receptor agonists; AID 2797; activation, % at 3 µM; P37288; CHO-V1R cells, Fluo-8 calcium fluorescence, agonist mode; 0% DMSO, 100% 3 nM vasopressin; 320,000 compounds, 0.25% hits;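 active means activation above the mean activation of all tested compounds plus 3 SD, per screening run, cut at about 20% in these data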;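 further: signal is peak over basal fluorescence ratio across a 100 second FLIPR read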
# * hit, by the source's call; x = no result given. These rows are one share of the data; the hit share may differ from the screen's.
SMILES,TAAR1 ag,TAAR1 antag,OXTR agonist,OXTR potentiate,V1R ag counter
C=Cn1ccnc1P(=S)(c1c(C)nn(-c2ccccc2)c1C)c1nccn1C=C,-1,-7,-0.2,-1,0.5
Brc1ccccc1,3,-13,-0.1,-2,0.5
CCC(CO)NC(=O)C1C=C2c3cccc4[nH]cc(c34)CC2N(C)C1 (stereo not drawn),9,-22,-1.1,3,-0.4
C[C@@H]1C[C@@H]([C@H](O)CC2CC(=O)NC(=O)C2)C(=O)[C@@H](C)C1,2,-9,-0.1,-2,0.6
CC1CCC2[C@@H](C)C(=O)OC3O[C@]4(C)CCC1C32OO4 (stereo partly drawn),0,-3,-0.8,1,-0.3
O=C(NCC(c1cccnc1)N1CCOCC1)Oc1ccccc1 (stereo not drawn),15,-13,-0.1,-11,-0.5
CC(N)Cc1c[nH]c2ccc(OCc3cccs3)cc12 (stereo not drawn),4,11,1.3,3,0.7
CN(C)[C@@H]1C(=O)C(C(N)=O)=C(O)[C@@]2(O)C(=O)C3=C(O)c4c(O)ccc(Cl)c4[C@@](C)(O)C3C[C@@H]12 (stereo partly drawn),1,-12,x,x,x
C[C@]12CC[C@H]3[C@@H](CCC4=CC(=O)CC[C@@H]43)[C@@H]1CC[C@@H]2O,13,-7,2.8,-3,1.2
CC[C@@H](CO)NC(=O)[C@@H]1C=C2c3cccc4[nH]cc(c34)C[C@H]2N(C)C1,13,-10,x,x,x
CCN(CC)N=O,1,3,-0.1,4,0.3

# Four compounds already listed, ordered by count of non-hydrogen atoms, falling:
SMILES,TAAR1 ag,TAAR1 antag,OXTR agonist,OXTR potentiate,V1R ag counter
C=Cn1ccnc1P(=S)(c1c(C)nn(-c2ccccc2)c1C)c1nccn1C=C,-1,-7,-0.2,-1,0.5
CCC(CO)NC(=O)C1C=C2c3cccc4[nH]cc(c34)CC2N(C)C1 (stereo not drawn),9,-22,-1.1,3,-0.4
C[C@@H]1C[C@@H]([C@H](O)CC2CC(=O)NC(=O)C2)C(=O)[C@@H](C)C1,2,-9,-0.1,-2,0.6
CCN(CC)N=O,1,3,-0.1,4,0.3

# Reformatted: results already given
# Screens in order: TAAR1 ag | TAAR1 antag | OXTR agonist | OXTR potentiate | V1R ag counter
- CC[C@@H](CO)NC(=O)[C@@H]1C=C2c3cccc4[nH]cc(c34)C[C@H]2N(C)C1
  13 | -10 | x | x | x
- CCN(CC)N=O
  1 | 3 | -0.1 | 4 | 0.3

# Quoted from the listing.
# OXTR agonist, CC1CCC2[C@@H](C)C(=O)OC3O[C@]4(C)CCC1C32OO4 (stereo partly drawn) : -0.8
# TAAR1 ag, CC[C@@H](CO)NC(=O)[C@@H]1C=C2c3cccc4[nH]cc(c34)C[C@H]2N(C)C1 : 13
